Bfl-1 A1 inh: inhibitors of the anti-apoptotic protein A1, read as caspase activation. MEF A1-2A-BIM cells, Caspase-Glo 3/7 luminescence, 3 h; percent of clofoctol response, vehicle zero. caspase activation, % (no concentration beside the values). 0.066% of 330,000 active. AID 2462;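 active means over half of replicate activation scores above 10%, or exactly half above 10 with the replicate mean above 10; inconclusive means replicate mean below 10 yet half the replicates above 10; inactive means over half of replicates below 10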;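 further: wells of about 30 µL received 50 nL stock; many hits fall short of the cut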
Beta cell apopt: beta cell apoptosis inhibition | INS-1E cytokine-induced death, ATP luminescence, 48 h; percent of positive-control rescue, neutral wells zero | protection from apoptosis, % (test concentration not listed) | 0.8% of 300,000 active;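 active means all replicates at 75% or more, or half of them and the mean; inconclusive means half reach 75% but not the mean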;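 further: 0% = cytokine-treated negative control wells and 100% = positive control rescue; higher means more ATP so stronger rescue from cytokine killing; wells of about 40 µL received 100 nL stock; the first replicate is given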
LANA-H2B inh: blocks KSHV LANA binding to histone H2A/H2B. AID 2629. cell-free LANA-H2A/H2B peptide, fluorescence polarization. Q9QR71. inhibition, % (test concentration not listed). 0.6% of 320,000 active; in the data active means inhibition mostly above about 10%, no sharp cut-off; inactive means mostly below about 6.7%;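 further: stock transfer was 7.5 nL into about 10 µL; 0% = median of vehicle wells and 100% = median of positive control wells; one replicate is shown; the record names a cut of 25% in any replicate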
Ecoli rRNA inh: inhibits bacterial ribosomal RNA function over humanized ribosomes; E. coli WT GFP vs humanized-ribosome RFP mutants, fluorescence, 24 h; stronger effect = lower value; DMSO median 0, no signal -100; GFP signal change (wild-type ribosome), % (test concentration not listed); 1.6% of 350,000 active; AID 720706;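 active means significant combined selectivity score with lowered wild-type GFP, culture density cut under 30%, mutant RFP and density less affected; inactive means any of these conditions unmet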; further: one replicate is shown; some compounds called inactive have numbers as strong as hits
T cruzi inh: blocks replication of Trypanosoma cruzi; T. cruzi beta-gal in NIH3T3, luminescence, 90 h; inhibition, % (no concentration beside the values); 1.4% of 300,000 active;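 active means mean inhibition across valid replicates above about 55%, limit read from the data; inconclusive means mean below that limit but half or more replicates reach it; inactive means mean below it, under half of replicates reach it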;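 further: signal also drops with host cell toxicity which is not excluded here; 0% = plate median of DMSO wells and 100% = zero luminescence signal; higher percent means less beta-gal luminescence so fewer parasites; stock transfer was 50 nL into about 50 µL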
Beta2AR agonist: human beta-2 adrenergic receptor agonism by FAP; 0.43% of 340,000 active; AID 504454; P07550; response, % (no concentration beside the values); Am2.2-beta2AR cells, FAP receptor internalization, flow cytometry; reference of the scale not given here;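 active means response above a set limit, near 3 SD of response in nonfluorescent compounds, cut at about 42% in these data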;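 further: stock transfer was 100 nL into about 11 µL; a reference agonist was the positive control; negative values mostly stem from fluorescent compounds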
Target sequence (P07550 whole entry, looked up): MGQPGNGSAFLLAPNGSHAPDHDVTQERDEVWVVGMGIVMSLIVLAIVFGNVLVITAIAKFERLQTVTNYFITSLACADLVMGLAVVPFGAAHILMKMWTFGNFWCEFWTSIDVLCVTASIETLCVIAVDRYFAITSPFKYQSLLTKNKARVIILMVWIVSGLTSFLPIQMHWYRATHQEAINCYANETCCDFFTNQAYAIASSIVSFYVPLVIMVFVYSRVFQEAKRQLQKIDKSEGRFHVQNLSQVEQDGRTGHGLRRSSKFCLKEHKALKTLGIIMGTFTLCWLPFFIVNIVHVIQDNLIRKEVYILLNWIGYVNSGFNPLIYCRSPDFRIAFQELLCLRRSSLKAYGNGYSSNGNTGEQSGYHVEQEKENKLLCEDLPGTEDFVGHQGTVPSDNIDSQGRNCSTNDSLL
Calb FLC: affects C. albicans growth with fluconazole; C. albicans CaCi-2 (fluconazole-resistant clinical isolate) + fluconazole, Alamar Blue growth, 48 h; growth inhibition, % (no concentration beside the values); 0.57% of 300,000 active;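 active means most replicates above 75%; inconclusive means exactly half above 75%; inactive means most below 75%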;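 further: all wells also contain fluconazole at 8 µg/ml as a sub-toxic cotreatment; 0% = median of DMSO wells and 100% = median of geldanamycin control wells; wells of about 8 µL received 7.5 nL stock; the first replicate is given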
ALR inh: blocks human ALR sulfhydryl oxidase activity; inhibition, % (no concentration beside the values); purified ALR, DTT oxidation, H2O2 HRP-luminol luminescence; 3.8% of 290,000 active;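 active means mean and each replicate at 75% or more; inconclusive means only one of the two met; inactive means neither met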;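 further: stock transfer was 7.5 nL into about 7.5 µL; 0% = neutral wells and 100% = wells with inactivated enzyme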
Target sequence (P55789 whole entry, looked up): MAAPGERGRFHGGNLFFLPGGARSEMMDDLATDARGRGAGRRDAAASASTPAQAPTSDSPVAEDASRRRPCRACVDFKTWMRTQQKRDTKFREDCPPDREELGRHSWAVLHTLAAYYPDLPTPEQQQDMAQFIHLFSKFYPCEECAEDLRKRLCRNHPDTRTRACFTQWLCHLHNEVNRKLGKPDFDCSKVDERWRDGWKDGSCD
Ecoli rRNA inh OD600: recorded beside Ecoli rRNA inh, whose call it bears; OD600 change, %; measured here: OD600 growth;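 optical density of the mix in the first replicate; 0 = DMSO median and -100 = no signal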
Ecoli rRNA inh RFP: recorded beside Ecoli rRNA inh, whose call it bears; RFP signal change, %; measured here: RFP humanized mutant strains;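 first replicate; 0 = DMSO median and -100 = no signal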
An asterisk follows results filed as active; ? = inconclusive; · = no result given. An excerpt; rates above refer to the full screens.

SMILES,Bfl-1 A1 inh,Beta cell apopt,LANA-H2B inh,Ecoli rRNA inh,Ecoli rRNA inh OD600,Ecoli rRNA inh RFP,T cruzi inh,Beta2AR agonist,Calb FLC,ALR inh
Cc1onc(-c2c(Cl)cccc2Cl)c1C(=O)N=C(N)N1CCOCC1,0.9,-6,-0.4,1,2,4.8,-15,7,-10,-8
COC(=O)C(NC(=O)C(C)NC(=O)OCc1ccccc1)C(C)C (stereo not drawn),0.0,-6,-4.6,5,10,-1.0,-3,2,-9,-6
O=C(NCCN1CCOCC1)c1cc2cc([N+](=O)[O-])ccc2s1,0.5,-5,-4.9,·,·,·,23,-6,30,-11
CCCCCn1c(=O)[nH]c2cc(C(=O)NCc3ccco3)ccc2c1=O,0.2,-1,4.9,·,·,·,0,-5,1,74
CCOc1cc(/C=N/NC(=O)CN2CCOCC2)ccc1OCc1ccccc1,-0.1,3,1.3,·,·,·,-2,-4,0,-8
O=C(Nc1ccc(F)cc1Cl)C1CCN(C(=O)Nc2ccccc2)CC1,0.0,3,1.7,9,11,4.7,-22,-6,8,-2
Cc1cc(NC(=O)CCC(=O)N(c2ccccc2F)C(C(=O)NC2CCCC2)c2ccccc2)no1 (stereo not drawn),0.3,4,2.8,10,9,2.2,-6,15,38,·
O=C(NC1CC1)c1ccc(NS(=O)(=O)c2ccc(F)cc2)cc1,0.5,-4,-3.4,-3,3,4.5,-9,-7,5,-13
Cc1ccnc2nc(C(=O)Nc3ccc4c(c3)OCO4)nn12,-7.0,11,10,·,·,·,-17,-12,-1,0
COc1ccccc1NC(=O)COc1cc(C)nc(C(C)C)n1,-0.5,-3,5.8,14,6,-1.5,0,10,-4,-6
COc1ccccc1NC(=O)Nc1nnc(C(C)C)s1,-0.3,-3,4.3,·,·,·,4,11,0,-17
CCSc1ncnc2c1sc1nc3c(cc12)COC(C)(C)C3,0.9,-6,5.8,-2,12,2.4,-20,1,-7,-6
O=C(O)CCC(=O)N1CCN(c2ncccc2C(F)(F)F)CC1,0.0,-6,-1.7,·,·,·,-6,-1,7,-8
N#CCC(=O)N/N=C/c1cccc(Oc2ccccc2)c1,-0.7,-2,-3.5,3,4,6.5,7,-8,-21,-3
Nc1ccc(SC(F)(F)F)cc1C(=O)c1ccccc1,0.2,-1,-2.5,·,·,·,14,25,-10,-28
Cc1ccc(NC(=O)N2CCCC2C(=O)NCC2CCCCC2)cc1 (stereo not drawn),1.0,-3,13,6,10,0.6,-11,-5,-26,·
CC(NC(=O)c1cccs1)C1CCCO1 (stereo not drawn),0.1,-1,-7.5,9,7,1.0,0,7,5,7
COc1ccccc1CNC(=O)c1cn(C)c2ccc(S(=O)(=O)N3CCCCC3)cc2c1=O,?,·,20,24,9,-1.9,-10,·,-14,-5
Cc1nnc(SCC(=O)N(C)c2c(N)n(Cc3ccccc3)c(=O)[nH]c2=O)n1Cc1ccccc1,0.0,0,0.1,5,16,3.7,8,-6,-3,-5
NC(=O)C1=C[C@@H](c2ccc(Br)cc2)C[C@@H](OCCCCO)O1,-0.6,-6,0.1,3,0,1.8,-18,-9,1,-40
CN(C(=O)CSc1nc(N)cc(N)n1)C1CCS(=O)(=O)C1 (stereo not drawn),-0.3,0,-3.3,19,18,4.4,-6,7,16,-5
C[C@H](CO)N1C[C@H](C)[C@@H](CN(C)C(=O)NC2CCCCC2)Oc2ccc(NC(=O)c3ccncc3)cc2C1=O,1.2,-8,-1.8,-2,0,-0.1,·,10,·,-4
CC(=O)NC1(c2ccccc2)CCN(Cc2nnnn2C(C)(C)C)CC1,2.5,-10,4.2,·,·,·,-4,11,-1,-11
CCCn1c(CCNc2nc(-c3ccc(Cl)c([N+](=O)[O-])c3)cs2)nc2cc(Cl)c(Cl)cc21,0.1,0,3.8,2,9,-2.9,-18,-8,2,-2
COc1ccc(-c2nnnn2C)cc1S(=O)(=O)NCc1ccccc1,0.8,4,2.1,11,6,0.5,-7,-4,-3,2
COc1cccc(/C=C/C(=O)c2ccc3c(c2)OCCO3)c1OC,-0.9,·,-0.4,-14,-13,-0.7,-3,2,3,14
COc1cc2[nH]c(=O)n(CCC(=O)NC3CCCC3)c(=O)c2cc1OC,0.5,-3,1.4,·,·,·,-26,-9,-8,-3
COC(=O)c1ccc(CN2CCCC(CCC(=O)NCc3ccc(C)o3)C2)cc1 (stereo not drawn),0.0,-4,5.4,7,11,-3.5,69*,0,3,10
Cc1c(Cc2ccccc2)c(=O)oc2c(CN(C)C)c(O)c(Cl)cc12,0.3,-7,5.7*,·,·,·,3,-2,?,32
COc1ccc(NC(=O)CC2CC3CCC2C3)cn1 (stereo not drawn),-0.2,-1,-1.0,-13,-5,-0.4,-17,10,-9,-2
CS(=O)(=O)c1ccc2nc(NC(=O)CCC(=O)c3cccs3)sc2c1,-1.9,-15,-6.5,·,·,·,5,5,4,-4
COc1cc(NC(=O)c2cccc(COCC(F)(F)C(F)F)c2)cc(OC)c1OC,0.4,1,-0.5,·,·,·,-23,-17,6,-7
CCS(=O)(=O)N1CCN(S(=O)(=O)c2ccc3c(c2)OCCO3)CC1,-0.6,-2,4.8,7,13,-2.2,-15,-1,8,30
Cc1ccc(SC(C)C(=O)Nc2cccnc2)cc1 (stereo not drawn),-0.1,0,-0.4,·,·,·,0,4,7,-3
Cc1ccc(C(=O)C(OC(=O)CCC(=O)Nc2cccc(C)c2)c2ccccc2)cc1 (stereo not drawn),-0.2,4,-2.0,·,·,·,-2,-5,3,·
COc1ccc(CNc2oc(-c3ccccc3)nc2C#N)cc1,-0.1,-7,2.6,-33,-48,-6.9,1,6,44,-7
Nc1nnc(SCC(=O)OCC(=O)c2ccccc2Br)s1,1.8,-4,1.1,8,7,-2.6,-16,3,8,-8
Cc1ccc(/C=C2\SC(=S)N(C(Cc3ccccc3)C(=O)O)C2=O)cc1 (stereo not drawn),-0.1,0,-2.7,·,·,·,-5,-7,35,-35
COc1ccc(-n2c(SCC(=O)Nc3sc4c(c3C#N)CCCC4)nnc2-c2ccccc2OC)cc1,-0.3,7,4.5,·,·,·,30,2,24,-3
CC(/C=N/NC(=O)c1cccc([N+](=O)[O-])c1)=C\c1ccccc1,-2.1,0,4.5,·,·,·,-8,3,-4,-5

Record cards, as listed above.
CS(=O)(=O)c1ccc2nc(NC(=O)CCC(=O)c3cccs3)sc2c1 is entered as Bfl-1 A1 inh = -1.9; Beta cell apopt = -15; LANA-H2B inh = -6.5; Ecoli rRNA inh = ·; Ecoli rRNA inh OD600 = ·; Ecoli rRNA inh RFP = ·; T cruzi inh = 5; Beta2AR agonist = 5; Calb FLC = 4; ALR inh = -4
COc1ccc(CNc2oc(-c3ccccc3)nc2C#N)cc1 is entered as Bfl-1 A1 inh = -0.1; Beta cell apopt = -7; LANA-H2B inh = 2.6; Ecoli rRNA inh = -33; Ecoli rRNA inh OD600 = -48; Ecoli rRNA inh RFP = -6.9; T cruzi inh = 1; Beta2AR agonist = 6; Calb FLC = 44; ALR inh = -7

Later entries
SMILES,Bfl-1 A1 inh,Beta cell apopt,LANA-H2B inh,Ecoli rRNA inh,Ecoli rRNA inh OD600,Ecoli rRNA inh RFP,T cruzi inh,Beta2AR agonist,Calb FLC,ALR inh
Cc1cccc(NC(=S)N2CCN(c3ccccc3)CC2)c1,2.3,-1,3.0,6,4,2.0,-29,-5,-7,-1
CC(=O)N1CCN(C(=O)Nc2cccc(C(F)(F)F)c2)CC1,1.1,-1,-0.2,·,·,·,5,4,-3,-3
CCO[C@H]1OC(C(=O)O)=C[C@@H](C(C)(C)C)[C@@H]1CCCO,0.9,-4,2.7,5,-10,-0.3,-7,3,-8,·
S=C(NCc1ccccc1)Nc1ccc2cn[nH]c2c1,0.1,-3,-2.2,6,5,2.9,-8,0,3,-7
CN(C)S(=O)(=O)c1cccc(NC(=O)c2ccc(Sc3nncn3C)c([N+](=O)[O-])c2)c1,0.0,-5,1.9,1,9,-1.8,-2,-3,-5,-3
CNC(=O)c1c(NC(=O)c2ccco2)sc2c1CCC2,-0.7,5,83*,-27,-38,1.2,9,-11,30,?
Cn1c(N2CCN(c3ccccn3)CC2)nc2c1c(=O)n(Cc1ccc(Cl)cc1)c(=O)n2C,1.0,23,·,·,·,·,16,127*,11,·
C/C(=N\Nc1ccc(Cl)cc1)c1ccccn1,-1.6,3,-1.6,·,·,·,11,29,3,100*
Cc1cc(C)n(-c2nc(N(C)C)nc(N3CCOCC3)n2)n1,0.5,-6,-1.2,·,·,·,-22,-10,25,30
COc1ccc(S(=O)(=O)Nc2ccc(F)cc2)cc1N(C)S(=O)(=O)c1ccc(Cl)cc1,-1.1,9,-4.5,-39,-58,9.3,?,4,4,·
Cc1nn(C(C)C(=O)NCCN2CCCC2)c(=O)c2c1sc1ccccc12 (stereo not drawn),1.1,-6,-0.8,6,10,-0.7,-6,9,-3,-6
O=C(NNc1nc2c(F)cccc2s1)c1ccccc1,-1.3,-5,-1.4,-17,-5,-4.5,-8,1,15,3
O=C(c1ccc(Br)o1)N(c1ccc(Br)cc1)C1C=CS(=O)(=O)C1 (stereo not drawn),0.7,-5,1.3,·,·,·,-9,-5,0,0
CSc1ccccc1C(=O)N1CCCCC1,-1.5,-13,0.3,15,6,0.0,-6,10,-1,-1
Cc1cc(C)c(C(=O)COC(=O)CN2C(=O)NC3(CCCC3)C2=O)cc1C,-0.5,-4,0.5,-1,-7,-1.6,·,-6,·,-4
Cc1cccc(NC(=O)CN2C(=O)S/C(=C\c3cccn3-c3cccc(C(=O)O)c3)C2=O)c1,0.3,1,-1.1,6,3,8.6,3,4,16,-7
COc1ccc(-c2nnc(NC(=O)c3ccccc3C)o2)cc1,0.1,6,3.5,-40,-49,-12,25,5,-1,-11
COc1ccc2c(c1)c1ncn(CC3CCCO3)c(=O)c1n2C (stereo not drawn),-0.1,4,-4.5,·,·,·,·,0,32,-2
C/C(=N\NC(=O)c1nnn(-c2nonc2N)c1-c1cccs1)c1cccnc1,-0.7,-7,6.1,9,6,1.9,-3,-16,-4,-4

In another format: entries from further up.
Sequence of screens: Bfl-1 A1 inh | Beta cell apopt | LANA-H2B inh | Ecoli rRNA inh | Ecoli rRNA inh OD600 | Ecoli rRNA inh RFP | T cruzi inh | Beta2AR agonist | Calb FLC | ALR inh
CSc1ccccc1C(=O)N1CCCCC1
→ -1.5 | -13 | 0.3 | 15 | 6 | 0.0 | -6 | 10 | -1 | -1
COc1ccc(-c2nnc(NC(=O)c3ccccc3C)o2)cc1
→ 0.1 | 6 | 3.5 | -40 | -49 | -12 | 25 | 5 | -1 | -11
